Screens (PubChem BioAssay)
Vaccinia pol inh = vaccinia E9 polymerase processive synthesis inhibition; actives 0.94% (n = 46,000); normalized absorbance, % (concentration not given with the values); AID 493162; in vitro processive DNA synthesis, absorbance read-out; hits give low values; some inactives read as strong as hits;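 active means replicate mean up to 90% and picked by the depositor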;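 further: 100% = median of the test wells of a plate; 100 nL library stock went into each well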
* hit, by the source's call. Some of the compounds tested; the hit share may differ from the screen's.

SMILES | Vaccinia pol inh
COCCn1cc(C(=O)N2CCC(C)CC2)c2c3ccccc3n(C)c2c1=O | 99
Cc1ccc(SCc2nc3ccccc3[nH]2)cc1 | 105
Nc1c2c(nc3ccccc13)N(C1CCCCC1)CC2 | 87*
O=C1NN(c2ccccc2)C(=O)/C1=C/c1ccc(SC2CCCCC2)o1 | 101
CCc1ccc(N=c2oc3c(C)ncc(CO)c3cc2C(N)=O)cc1 | 103
C=C1[C@@H](C)[C@H]2[C@H](Cc3ccccc3)NC(=O)[C@]23[C@H](OC(C)=O)/C=C/[C@](C)(O)C(=O)[C@@H](C)C/C=C/[C@H]3[C@@H]1O | 101
CCC(C)n1ncn(-c2ccc(N3CCN(c4ccc(OC)cc4)CC3)cc2)c1=O (stereo not given) | 100
O=S(=O)(NCC(c1ccccc1)n1cc(-c2ccccc2)nn1)c1ccc(Cl)cc1 (stereo not given) | 100
Cc1cc(S(=O)(=O)Nc2ccc3oc4c(c3c2)CC(C(C)(C)C)CC4)ccc1Cl (stereo not given) | 101
NS(=O)(=O)c1ccc(NC(=O)CC2(CC(=O)O)CCCC2)cc1 | 103
O=S(=O)(NC1CCCc2ccccc21)c1ccccc1 (stereo not given) | 108
CNC(=O)C1CCN(C(=O)N2CCOc3ccccc32)CC1 | 100
COC(CN=C1COc2cccnc2N1)OC | 95
OCCN(CCO)c1ncnc2sc3c(c12)CCCC3 | 98
CC(C)(Oc1ccccc1Cl)C(=O)O | 101
O=C(O)CC12CC3CC(CC(Cl)(C3)C1)C2 | 100
CCn1c(=O)c2cc(C(=O)N(C)CCC#N)sc2c2ccccc21 | 93
O=C(NCc1noc2ccccc12)N1CCCCC1 | 94
CCn1cc(C(=O)O)c(=O)c2cnc(N3CCN(C(=S)NC)CC3)nc21 | 100
O=C(Cc1c[nH]c2ccccc12)OCC(=O)c1ccc(F)cc1 | 94
CC(C)CC(NC(=O)CCN)C(=O)O (stereo not given) | 101
COC(=O)/C=C/c1cc2ccccc2o1 | 110
CCOC(=O)c1cc(C)n(S(=O)(=O)c2ccc(C)cc2)c1C | 104
C[N+]1(CCOCc2ccccc2)CCOCC1 | 100
Cc1ccc(N=Cc2c(Sc3ccc(Cl)cc3)nc3sccn23)cc1 | 100
Cc1cc(NC(=O)CN2CCCCC2)n(-c2ccccc2)n1 | 102
O=C(c1ccccc1)N1CN(C2CCCCC2)Cc2c1sc1c2CCCC1 | 100
COc1cc(Br)cc2cc3c(=O)n(-c4ccccc4)nc-3oc12 | 91
C=CCNc1nc(Nc2ccc(Cl)cc2)nc(OC)n1 | 90
C=CCNc1nc(-c2cccs2)c(CC(=O)O)s1 | 118
C=CCC(CC=C)(NC(=O)c1ccccc1)c1ccccc1 | 100
O=C(O)c1ccc(N=Cc2ccc(-c3ccc(Cl)cc3)o2)cc1 | 94
FC(F)(F)c1ccnc(=S)[nH]1 | 94
CCn1c(=Nc2ccc(C)cc2)ccc2cc(C)ccc21 | 98
O=C(NCC1CCCO1)/C(=C\C=C/c1ccccc1)NC(=O)c1ccccc1 (stereo not given) | 102
c1csc(Cn2c(-c3cccs3)nc3ccccc32)c1 | 98
OCCCc1nc2ccc(Cc3ccc4nc(CCCO)[nH]c4c3)cc2[nH]1 | 100
COc1ccc(/C=C/C(=O)Nc2nc3ccccc3s2)cc1 | 102
CCCNc1nc(Cl)nc(NCCC)n1 | 100
CC1(C)CCc2cc(S(=O)(=O)NCCN3CCCC3)ccc2O1 | 106
COc1ccc(NC(=O)C(C)n2cccc2)cc1 (stereo not given) | 102
CS(=O)(=O)N1CCc2cc(S(=O)(=O)Nc3ccc4c(c3)COC4=O)ccc21 | 99
O=S(=O)(NCc1ccc(-c2cccs2)cc1)c1ccc(N2CCOCC2)nc1 | 99
CCOC(=O)C1CCCN(CC(O)COc2ccccc2Br)C1 (stereo not given) | 107
CCc1ccc(NS(=O)(=O)c2ccc3[nH]cc(C(=O)N4CCCC4)c(=O)c3c2)cc1 | 100
CC(=C1C(=O)c2ccccc2C1=O)N1CCC(C(N)=O)CC1 | 100
Cn1c(CCNC(=O)c2ccccc2)nc2ccccc21 | 99
COc1ccccc1C(C#N)c1cccc(Cl)n1 (stereo not given) | 111
CC(CN1CCCCC1)OC(=O)C1c2ccccc2Oc2ccccc21 (stereo not given) | 100
C=CCN1C(=O)CN2c3ccccc3C(C)(C)C12C (stereo not given) | 96
Nc1ccc(-c2nc3c(Cl)c(N)ccc3[nH]2)cc1Cl | 81
Cc1nc2ccc(NC(=O)C3=COCCO3)cc2s1 | 105
CC(C)CN1C(=O)C(=Nc2cccnc2)c2ccccc21 | 90
CN1CCN(c2ccc(NC(=O)COc3cccc4ccccc34)cc2)CC1 | 91
Cc1ccc2c(Cl)cc(Cl)c(OCC(=O)N3CCCC3)c2n1 | 96
OCC(S)CS (stereo not given) | 95
COc1ccc(-c2nnco2)cc1 | 79
CCCC(=O)N1CC(=O)Nc2ccc(C)cc2C1c1ccccc1 (stereo not given) | 104
O=c1/c(=C\c2ccncc2)sc2nc3ccccc3n12 | 100
CS(=O)(=O)c1ccc2nc(NC(=O)CCSc3ccccc3)sc2c1 | 101

(more compounds)
SMILES | Vaccinia pol inh
Fc1ccc2[nH]c3c(c2c1)CN(Cc1ccc(Cl)cc1Cl)CC3 | 94
CSc1nnc(Cn2c(=O)sc3ccccc32)n1C | 100
COc1ccc(-c2cc3c(=O)n(CC(=O)NC4CCC(C)CC4)ncn3n2)cc1 (stereo not given) | 95
O=C1NC(=Nc2ccccc2)SC1Cc1cccc(C(F)(F)F)c1 (stereo not given) | 100
Cc1nc(-n2cc(-c3ccccc3)nn2)nc2c1CCCC2 | 120
CN(CC(=O)NC1CCCCC1)c1nnc(N2CCCC2=O)s1 | 95
N=c1c[n+](CC23CC4CC(CC(C4)C2)C3)[n-]o1 | 100
CC(C)N(C(=O)CSc1nc2ccccc2[nH]1)c1ccccc1 | 98
COc1ccc(OC)c(S(=O)(=O)Nc2cnc3ccccc3c2)c1 | 100
CCOC(=O)COc1cc2oc(=O)cc(-c3ccccc3)c2cc1Cl | 99
COc1ccc(-c2noc(CN(C(=O)NC3CCCCC3)C(C)C)n2)cc1OC | 94
COC(=O)c1sc2nc(-c3ccccc3)cc(-c3ccccc3)c2c1N | 103
CCc1ccc(NC(=O)c2cnc(Nc3ccc(OC)cc3)c3ccccc23)cc1 | 103
C[n+]1ccc(/C=C\c2ccco2)c2ccccc21 | 91
O=C1C2=C(Nc3ccccc3SC2c2ccc(O)cc2)c2ccccc21 (stereo not given) | 109
ONC(=NCc1ccccc1)c1cccc(Cl)c1 | 109
CC(NC(=O)OCc1ccccc1)C(=O)Oc1ccc2c(=O)c(-c3ccc(F)cc3)coc2c1 (stereo not given) | 100
CCC(=O)OCC(=O)Nc1cccc2ccccc12 | 95
CCCc1[nH]nc2c1C(C1CC=CCC1)C(C#N)=C(N)O2 (stereo not given) | 96
CCC12CCCN3CCC4(c5ccc(OC)c(O)c5N(C(C)=O)C4CC1)C32 (stereo not given) | 101
S=C(NCC1CCCO1)NC1CCCCC1 (stereo not given) | 101
CSc1nnc2n(/N=C/c3cc4c(cc3Br)OCO4)cnn12 | 100
NC(=O)COC(=O)c1c2c(nc3ccccc13)CCC2 | 100
Cc1cc(NC(=O)C2CC(c3ccc(Cl)cc3)=NO2)no1 (stereo not given) | 99
O=C(Cn1ncc2c(=O)oc3ccccc3c21)Nc1cccc(Cl)c1 | 102
COc1ccc(C(=O)C(C)OC(=O)c2cc(C)nc3ccccc23)cc1 (stereo not given) | 102
O=C(CSc1ncnc2sc3c(c12)CCCC3)c1ccccc1 | 96
N#CC1=C(SCC(=O)NC2CCCCC2)NC(=O)CC1c1ccccc1F (stereo not given) | 100
Cc1cc(Br)ccc1NCc1ccc2c(c1)OCO2 | 100
O=C(c1ccc(Br)cc1)n1c(=O)oc2ccccc21 | 101
Clc1ccc(CN2CCN(c3cccc4[nH]ccc34)CC2)cc1Cl | 88
O=S(=O)(NCC12CC3CC(CC(C3)C1)C2)c1ccc(Cl)c2ccccc12 | 100
C=CCn1c(CCC)nc2ccccc21 | 100
NC(=O)C1CC(=O)N(Cc2ccccc2)C1 (stereo not given) | 95
O=C(O)c1c(F)c(F)c(F)c(F)c1C(=O)O | 98
c1ccc2cc3c(Nc4ccc(N5CCOCC5)cc4)ccnc3cc2c1 | 67*
CCOC(=O)C1=C(C)NC(=O)CC1c1ccccc1C(F)(F)F (stereo not given) | 88
O=C(c1ccc(F)cc1)c1c[nH]c(C(=O)NCc2ccco2)c1 | 81
COc1ccc(-c2[nH]ncc2C(=O)NC2CCCCC2)cc1 | 83
CCN(CC)C(=O)c1c2c(nc3ccccc13)CCCC2 | 101
CCOC(=O)c1c(NC(C)=O)no[n+]1[O-] | 101
O=C(CSc1nnnn1-c1ccccc1)N1CCCC1 | 98
Oc1oc(-c2ccccc2)nc1/C=N/c1ccccn1 | 100
CSc1nsc(SC)c1NC(=O)N(C)C | 107
CCOC(=O)C1CCN(Cc2cc(Cl)c3cccnc3c2O)CC1 | 100
COC(=O)C1=C(Nc2ccc(OC(=O)Nc3ccc(OC(F)(F)F)cc3)cc2)CSC1 | 100
O=C(Nc1ccccc1)c1cccc(S(=O)(=O)NCC23CC4CC(CC(C4)C2)C3)c1 | 100
COC(=O)Cn1cc(C(=O)c2ccccc2)c2ccccc21 | 93
COc1ccc(C(=O)NCc2nc3ccccc3[nH]2)cc1 | 99
CCN(C(=O)c1cnccc1C(F)(F)F)c1nc2cc(Cl)ccc2s1 | 99
CCC(CC)c1nc(Nc2ccccc2)c2ccccc2n1 | 100
N=c1oc2cc(O)ccc2cc1C(=O)Nc1ccc(F)cc1 | 101
CCC(C(=O)Nc1cccc(C)c1C)n1nc(C)c2sc3ccccc3c2c1=O (stereo not given) | 101
Cc1ccc(C(=O)OCC(=O)c2ccc(-c3ccccc3)cc2)s1 | 107
CCS(=O)(=O)c1nc2ccccc2n1Cc1ccc(C(C)(C)C)cc1 | 104
CN(C)C(=S)N(C#N)c1nc(N(C)C)nc(N(C)C)n1 | 100
Cn1c(=O)oc2cc(S(=O)(=O)NCc3ccco3)ccc21 | 108
CC(=O)Nc1nc(-c2ccc3c(c2)OCCO3)cs1 | 69
Cc1c(C=Nc2ccc3c(c2)OCCO3)c2ccccc2n1C | 103
CC1CCCC(C)N1C(=O)C1CC(c2ccc(F)cc2)=NO1 (stereo not given) | 101

In the list so far, 10 have a thiophene ring, fused or not.
SMILES | Vaccinia pol inh
OCCN(CCO)c1ncnc2sc3c(c12)CCCC3 | 98
CCn1c(=O)c2cc(C(=O)N(C)CCC#N)sc2c2ccccc21 | 93
O=C(c1ccccc1)N1CN(C2CCCCC2)Cc2c1sc1c2CCCC1 | 100
C=CCNc1nc(-c2cccs2)c(CC(=O)O)s1 | 118
c1csc(Cn2c(-c3cccs3)nc3ccccc32)c1 | 98
O=S(=O)(NCc1ccc(-c2cccs2)cc1)c1ccc(N2CCOCC2)nc1 | 99
COC(=O)c1sc2nc(-c3ccccc3)cc(-c3ccccc3)c2c1N | 103
O=C(CSc1ncnc2sc3c(c12)CCCC3)c1ccccc1 | 96
CCC(C(=O)Nc1cccc(C)c1C)n1nc(C)c2sc3ccccc3c2c1=O (stereo not given) | 101
Cc1ccc(C(=O)OCC(=O)c2ccc(-c3ccccc3)cc2)s1 | 107

Further compounds:
SMILES | Vaccinia pol inh
Cc1ccc(NS(=O)(=O)c2ccc3[nH]c(=O)sc3c2)cc1F | 102
Oc1ccc(-c2cccc(-c3ccc(O)cc3)n2)cc1 | 92
Cc1cc2ccccc2c(N=Cc2cc(Br)cc(Br)c2O)c1C#N | 81
CCn1cc(SCC(=O)NCc2ccco2)c2ccccc21 | 93
C=CCNc1nc(CC(=O)OCC)cs1 | 101
O=C(OCc1ccccc1)c1cccc(-c2nnn(Cc3ccccc3)n2)c1 | 100
COC(=O)c1cncn1C(C)c1ccccc1 (stereo not given) | 70
O=C1CCCC2=C1C(c1cccc(Br)c1)Nc1ccccc1N2 (stereo not given) | 100
CCOC(=O)Cc1nc(C)cc(C)n1 | 106
CCOc1ccc(N=C2C(=O)N(CN3CCCCC3)c3ccccc32)cc1 | 100
CC(C)[C@]12O[C@H]1[C@@H]1O[C@]13[C@]1(O[C@H]1C[C@H]1C4=C(CC[C@@]13C)C(=O)OC4)[C@@H]2O | 102
c1ccc(-c2nc3ccccn3c2Nc2ccc3c(c2)OCO3)cc1 | 95
CCn1cc(/C=C(\NC(=O)c2ccccc2)C(=O)N2CCCC2)c2ccccc21 | 95
CC(C)C(=O)Nc1scc(-c2ccccc2)c1C(=O)O | 96
O=C(c1ccco1)N(c1ccccn1)C1CCCCC1 | 98
CC1CCCCC1NC(=O)C1CCCN(c2nc3ccccc3o2)C1 (stereo not given) | 102
CCN(CC)c1ccc(C=C2C(=O)N(C)C(=O)N(C)C2=O)c(OCc2ccc(Cl)cc2Cl)c1 | 104
COC(=O)CC1=CC(C)(CC(=O)OC)C(C#N)(C#N)C(N)=C1C#N (stereo not given) | 100
CCOC(=O)N1CCC(NC(=O)c2cc3c(s2)-c2ccccc2OC3)CC1 | 99
O=C(CC(=O)N1CCCCC1)N1CCCCC1 | 98
C=CC(=O)NCC(c1cccs1)N1CCOCC1 (stereo not given) | 108
O=C1CC(C(=O)Nc2ccc(Cl)cc2)SC(=Nc2ccccc2)N1 (stereo not given) | 102
COc1ccc(CNC(=O)c2cc3ccccc3oc2=O)cc1 | 100
Cc1nc2c(=O)n(-c3cc(C(F)(F)F)ccc3Cl)nc(C)c2s1 | 100
COc1cc2c(cc1OC)C1CC(=O)C(CC(C)C)CN1CC2 (stereo not given) | 99
C=CCN1C(=O)N(c2ccccc2)C(=O)C1CC(=O)Nc1ccccc1 (stereo not given) | 99
Cc1sc2nc(CCl)nc(Cl)c2c1C | 100

A different layout for 5 compounds above:
compound	Vaccinia pol inh
COc1cc2c(cc1OC)C1CC(=O)C(CC(C)C)CN1CC2 (stereo not given)	99
O=C1CC(C(=O)Nc2ccc(Cl)cc2)SC(=Nc2ccccc2)N1 (stereo not given)	102
COc1ccc(CNC(=O)c2cc3ccccc3oc2=O)cc1	100
Cc1sc2nc(CCl)nc(Cl)c2c1C	100
C=CC(=O)NCC(c1cccs1)N1CCOCC1 (stereo not given)	108
